gsp antagonist = qHTS for Antagonists of gsp, the Etiologic Mutation Responsible for Fibrous Dysplasia/McCune-Albright Syndrome: qHTS | actives 0.4% (n = 340,000) | Potency, µM (top dose mostly 76.9 µM), for inactives: top-dose activity change, negative = inhibition, hits mostly inhibitors | AID 624288, 2012 | gsp-mutant cells, cAMP HTRF, 30 min; control for the full effect not named in the record; active = falling curve of any shape with a large fitted effect; inconclusive = falling curve, mostly with a smaller effect; inactive = flat or rising curve; cell line not stated here;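 also: intracellular cAMP measured with PDE inhibitor Ro 20-1724 present during compound exposure; potency is read from the fitted curve at half-maximal effect; % is scaled to controls: 0 for no effect and ±100 for the full control effect; nearly all actives have a fitted effect of over 65% in size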
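HTRF cAMP read-out (cAMP-d2 plus anti-cAMP antibody-K in lysis buffer, 30 min RT). Before lysis, cells are exposed to compounds with […] for 30 min at 37C in DPBS containing Ca/Mg, BSA and Tween 20.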
TRPML1 inh = qHTS for Inhibitors of the Human Mucolipin Transient Receptor Potential 1 (TRPML1); Mucolipin-1 (Homo sapiens), Q9GZU1; TRPML1-inducible cells, Ca2+ dye fluorescence, FDSS; stronger effect = lower value; inhibition of EC80 agonist-evoked calcium signal; activity change, negative = inhibition, % (no concentration beside the values); actives 0.02% (n = 390,000); in the data active means activity change below about -50%; inconclusive means about -30% to -50%; inactive means above about -30%;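 also: stimulus is agonist 54-4 at its EC80 concentration; % is scaled to controls: 0 for no effect and ±100 for the full control effect; compound concentration not given in the record; the text of the record puts the active cut at -80%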
Target sequence (Q9GZU1 whole entry, looked up): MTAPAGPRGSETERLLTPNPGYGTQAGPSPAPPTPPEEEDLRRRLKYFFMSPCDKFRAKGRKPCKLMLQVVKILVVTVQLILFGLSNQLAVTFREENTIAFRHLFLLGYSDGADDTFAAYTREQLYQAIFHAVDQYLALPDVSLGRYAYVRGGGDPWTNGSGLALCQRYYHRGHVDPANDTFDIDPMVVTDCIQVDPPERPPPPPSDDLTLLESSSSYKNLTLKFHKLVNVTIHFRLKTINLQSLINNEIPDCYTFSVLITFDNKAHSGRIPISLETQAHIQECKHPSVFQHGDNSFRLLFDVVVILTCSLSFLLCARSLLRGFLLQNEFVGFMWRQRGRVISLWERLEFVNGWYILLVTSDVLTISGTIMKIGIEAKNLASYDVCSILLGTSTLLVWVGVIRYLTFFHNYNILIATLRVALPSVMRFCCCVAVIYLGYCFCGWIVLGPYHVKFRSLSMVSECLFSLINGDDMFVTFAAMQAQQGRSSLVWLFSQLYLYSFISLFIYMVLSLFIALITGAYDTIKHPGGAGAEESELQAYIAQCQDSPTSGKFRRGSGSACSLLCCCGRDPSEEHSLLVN
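Tet-induced TRPML1-DL cells loaded with Ca8 no-wash calcium dye were read kinetically on FDSS. Compound addition was followed by EC80 agonist 54-4 (4 uM final); inhibition was read over 110 s.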
Menin MLL FP FL = qHTS Assay for Inhibitors Targeting the Menin-MLL Interaction in MLL Related Leukemias: Competition With Fluorescein Labeled MLL-derived Peptide | Fluorescence polarization, fluorescein-MLL peptide displacement from menin | FP activity change, % at 61.4 µM | 290,000 tested, under 10 active | AID 1766, 2009; inconclusive = falling polarisation curve, or a change in total fluorescence; inactive = total fluorescence flat and polarisation flat or rising; no compound was filed as active; the % refers to the polarisation; negative = inhibition;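 also: % of control where 0% means no effect; inhibitors lower the polarisation; unlabelled MLL peptide was the positive control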
ClpP mod = qHTS Assay for Activators of ClpP; purified B. subtilis ClpP, FRET peptide cleavage, 20 min; Potency, µM (titrated, usually from 57.5 µM), without a hit: at the top dose activity change, negative = active; actives 1.9% (n = 340,000); AID 651965, 2013; active = well fitted falling curve with a large enough effect; inconclusive = small, poorly fitted or top-dose-only effect; inactive = no such curve, though single readings can be large or run the other way; also: potency is read from the fitted curve at half-maximal effect; the source files actives as falling curves though it sought activators and does not explain the sign; nearly all actives have a fitted effect of over 65% in size; many hits overshoot -100%
Target sequence (P80244 whole entry, looked up): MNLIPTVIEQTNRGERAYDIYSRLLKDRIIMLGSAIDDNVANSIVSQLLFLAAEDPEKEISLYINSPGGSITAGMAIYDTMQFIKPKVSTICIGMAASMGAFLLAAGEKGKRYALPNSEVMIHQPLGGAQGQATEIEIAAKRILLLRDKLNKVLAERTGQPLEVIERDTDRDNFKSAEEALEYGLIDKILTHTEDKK
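Purified B. subtilis ClpP, 10 microg/mL final in Tris/HCl pH8 with KCl, BSA, glycerol and Tween-20, cleaved an Abz/nitrotyrosine-quenched decapeptide. Fluorescence (ex 320, em 430) was read at 0 and 20 min at room temperature. Delta was normalized to 5.8 microM ADEP and DMSO/no-enzyme controls.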
TRPML1 agonist = qHTS for Agonists of the Human Mucolipin Transient Receptor Potential 1 (TRPML1). TRPML1-expressing cells, Ca2+ dye fluorescence, FDSS; host cell line not named in the record; reference of the full effect not given here. activation, % (no concentration beside the values). Mucolipin-1 (Homo sapiens), Q9GZU1. actives 0.12% (n = 410,000); in the data active = activation above about 50%; inconclusive = about 30% to 50%; inactive = below about 30%; also: 0% is about no effect; the text of the record puts the active cut at 80%
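Agonist activity was taken from a 110 s kinetic Ca2+ dye read on the FDSS after pinning compounds onto TRPML1-DL cells. The cells were seeded at 1,500/well with Tet inducer, incubated about 16 h, then dye-loaded at room temperature.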
gsp ag = qHTS for Agonist of gsp, the Etiologic Mutation Responsible for Fibrous Dysplasia/McCune-Albright Syndrome: qHTS. gsp mutant cells, cAMP HTRF, 30 min; control for the full effect not named in the record. Potency, µM (highest dose often 76.9 µM), without a hit: at the highest dose activation (cAMP increase), usual class: activators. actives 0.13% (n = 340,000); active = well fitted activation curve with a large enough effect; inconclusive = small, poorly fitted or top-dose-only effect, or another doubt; inactive = no such curve, though single readings can be large or run the other way; cell line not stated here;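 also: phosphodiesterase inhibitor Ro 20-1724 added with compounds to block cAMP breakdown; potency is read from the fitted curve at half-maximal effect; nearly all actives have a fitted effect of over 60% in size; about a fifth of the inactives were tested at one dose only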
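Cells in DMEM/10% FBS with G418 were pretreated with compounds in DMSO plus […] (300 uM stock) for 30 min at 37C. cAMP was measured by HTRF (cAMP-d2 plus anti-cAMP antibody-K) after 30 min at room temperature.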
The depositor's hits bear a star; ? = inconclusive; nt = not tested or not shown; & = joins results of further samples; [ ] = dose if it differs, or a comment.

SMILES	gsp antagonist	TRPML1 inh	Menin MLL FP FL	ClpP mod	TRPML1 agonist	gsp ag
O=C(NCc1ccco1)c1cc(C(=O)C2CCCCC2)c[nH]1	4%	10	3.2	-0.6%	0.6	-3%
O=C(Nc1ccccc1C(=O)N1CCN(Cc2ccccc2)CC1)c1ccccn1	8%	-24	1.6	-4.2%	0.7	-4%
c1ccc(-c2nc(-n3ccnc3)nc(-n3ccnc3)n2)cc1	-21%	6	-0.6	-0.4%	0.0	0%
CCCCN1C(=O)/C(=C2\SC(N3CCCCC3)=NC2=O)c2ccccc21	22%	51	2.1	2.4%	1.4	10%
COc1ccc(/C=C(\NC(=O)c2ccc(C)cc2)C(=O)N2CCCCC2)cc1	-3%	16	5.2	1.0%	0.5	-13%
O=C(CSc1nnc(-c2ccccc2O)o1)N1CCc2ccccc2C1	-6%	18	3.6	-2.7%	2.5	15%
CCOC(=O)c1ccc(NC(=O)Cc2ccc(-n3c(CC)nc4cccnc43)cc2)cc1	nt	-17	nt	-0.5%	3.8	nt
CNS(=O)(=O)c1cc(NC(=O)CCCNC(=O)c2ccc(Cl)cc2)ccc1C	4%	8	0.6	nt	-0.1	-40%[inhibitor]
Cc1ccc(C(=O)OC2CCCN(C)C2)cc1 (centres undefined)	9%	-6	1.3	1.0%	0.2	11%
Cn1nc(C(=O)Nc2cccc(C(=O)NC3CC3)c2)c2ccccc2c1=O	-11%	0	nt	0.2%	-0.7	-41%[inhibitor]
COc1ccc(OC)c(NC(=O)CSc2ccc3ccccc3c2)c1	-14%	3	2.3	-1.3%	1.8	3%
COCc1ccc(C(=O)N2CCCC(Nc3ccc(C(C)C)cc3)C2)s1 (centres undefined)	-22%	3	-8.6	0.0%	1.9	-33%[inhibitor]
O=C(Nc1ccc2c(c1)OCCO2)c1cc(F)c(F)cc1Cl	-10%	32	0.2	-1.0%	0.5	-12%
Cc1ccc(C(=O)Nc2nc(C(C)(C)C)cs2)s1	-7%	16	4.9	-15%	0.0	-8%
O=C(NC1CCCC1)c1cc2nc(-c3ccccc3)cc(-c3ccccc3)n2n1	1%	19	2.6	-4.7%	-0.4	27%
Cc1cc(C(=O)OC2CCOC2=O)c2ccccc2n1 (centres undefined)	4%	4	4.4	-18%	0.5	-17%
NC(=O)C1=C[C@@H](c2ccc(Br)cc2)C[C@@H](OCc2ccc(CO)cc2)O1	-2%	-6	-4.4	-0.5%	-0.3	nt
O=C(Nc1ccc(NC(=O)C2CC2)nc1)c1ccco1	16%	36	3.9	1.6%	2.4	23%
Cc1ccc2nc(-c3ccc(SCC(=O)Nc4nc(C)cs4)nc3)[nH]c2c1	?	-8	2.1	7.9µM*	-0.2	-14%[15.4 µM]
O=C(COc1ccccc1[N+](=O)[O-])OCC(=O)c1ccc(Br)s1	22%	15	nt	nt	-0.7	10µM*
CN(C)C(CNC(=O)CCc1nc2ccccc2s1)c1ccccc1 (centres undefined)	-5%	-2	0.0	nt	0.3	19%[15.4 µM]
O=[N+]([O-])c1cccc(-c2nnnn2-c2cccc(F)c2)c1	-5%	16	nt	nt	1.6	-28%
Cc1cccc(Nc2nnc(SCC3CCCCO3)s2)c1 (centres undefined)	3%	7	-2.0	0.1%	-0.2	-3%[15.4 µM]
CC1CCCC(C)N1C(=O)COC(=O)CNC(=O)c1ccc(Cl)cc1Cl (centres undefined)	-11%	-15	nt	0.3%	-0.5	-50%[inhibitor]
Cc1ccnc(NC(=O)Cc2ccc(F)cc2)n1	12%	3	2.5	nt	-0.3	?
Cc1ccc2c(=O)cc(C(=O)Nc3cccc(C(F)(F)F)c3)oc2c1C	nt	8	nt	-0.3%	-0.7	nt
Cc1ccc(-c2nc(-c3ccc(Cl)cc3)sc2CC(=O)O)c(C)c1	?	41	0.2	-4.0%	0.9	?
CSC1=NCCN1S(=O)(=O)c1ccc(C)cc1	-3%	-12	-2.8	0.8%	0.5	-7%
O=C(CSCc1ccccc1Br)NNC(=S)NCc1ccco1	7%	12	4.0	1.3%	0.3	-20%
O=C(Nc1ccc(Cc2ccc(NC(=O)C3CC3)c(O)c2)cc1O)C1CC1	-20%	4	-0.2	2.8%	1.7	-21%
Cc1ccc(CNC(=O)Cn2c(SCC(=O)Nc3ccc(F)cc3)nc3ccccc32)cc1	nt	-8	nt	2.0%	-0.9	nt
CCOc1ccc(S(=O)(=O)N2CCC(C(=O)OCc3cccc(OC)c3OC)CC2)cc1	-6%	-8	nt	1.0%	1.4	-13%
O=C(O)c1ccc(-c2nc3ccccc3s2)o1	4%	nt	0.0	3.8%	nt	?
COc1ccccc1N1CCN(C(=O)CCS(=O)(=O)c2ccc3c(c2)oc(=O)n3C)CC1	-2%	12&13	nt	1.0%&1.2%	-0.7&-1.3	26%
Cc1nn(C2CCS(=O)(=O)C2)c(C)c1CN(C)C(=O)c1ccc(F)cc1 (centres undefined)	nt	-4	nt	-3.1%	-0.1	8%
O=c1[nH][nH]c(=O)c(Cl)c1Cl	10%	6	nt	nt	0.1	1%
O=C(NCCc1ccccc1)C(c1ccncc1)N(C(=O)c1csnn1)C1CC1 (centres undefined)	8%	22	1.9	-2.3%	0.2	-29%
COc1cccc2c1N1C(=O)c3c(C(=O)O)cccc3C1CC2(C)C (centres undefined)	1%	39	3.1	-2.3%	0.3	-6%
CSc1nc2nc3c(cc2c(=O)[nH]1)C(O)Oc1ccc(C)cc1-3 (centres undefined)	-15%	9	5.2	3.8%	0.8	-44%[inhibitor]
Cc1ccc(NC(=O)CCC(=O)NNC(=O)/C=C/C(=O)O)c(C)c1	7%	19	0.3	4.0%	2.2	-4%
COc1ccc(CNC(=O)Cn2nc(C)c3c(C)n(-c4ccccc4)nc3c2=O)cc1OC	nt	22	nt	-2.4%	-0.7	nt
COCCn1c(CNC(=O)c2cc(OC)c(OC)c(OC)c2)nc2cccnc21	nt	13	nt	-0.9%	-0.2	nt
Cc1cc(C)nc(Nc2ccc(N3CCOCC3)cc2)n1	-32%	9	2.7	18%	-0.4	-47%[inhibitor]
O=C(O)c1ccccc1-c1nc2ccccc2c(=O)[nH]1	16%	13	-0.6	-0.1%	0.9	0%
O=C(O)c1ccc(Cl)c(S(=O)(=O)Nc2ccccc2N2CCOCC2)c1	-19%	4	3.7	nt	-0.7	-13%[15.4 µM]
CCOCCCNC(=O)/C(C#N)=C/c1ccccc1F	14%	2	1.8	0.6%	-0.2	-16%[15.4 µM]
N#Cc1ccccc1COC(=O)CCN=C1NS(=O)(=O)c2ccccc21	0%	-3	nt	nt	-0.4	-17%
COc1cccc2c(=O)n(CC(=O)Nc3ccc(F)cc3)ccc12	8%	26	7.1	?	-0.5	11%
COc1ccccc1C1c2[nH]c3ccccc3c2CCN1Cc1cnc(C)s1 (centres undefined)	-29%	22	0.0	nt	1.8	-3%[15.4 µM]
CCOC(=O)Cn1c(=O)oc2cc(S(=O)(=O)N(C)c3cccc(C)c3)ccc21	-14%	11	5.1	nt	1.0	-24%[15.4 µM]
O=C(Nc1ccc(N2CCN(c3ccc(F)cc3)CC2)c(C(=O)O)c1)c1cccs1	nt	-8	nt	1.1%	-0.7	nt
O=C(NCCCNC(=O)c1cnccn1)c1cccc(Cl)c1	6%	8	1.9	nt	0.7	-2%
O=C(NCCCc1ccccc1)c1cccc(Br)c1	-1%	26	nt	1.3%	-1.3	23%
O=C(NC(=S)Nc1ccc2ncccc2c1)c1ccccc1	-13%	21	5.3	0.3%	0.6	-4%[15.4 µM]
Cc1n[nH]c(=O)c2c(NC(=O)CSc3ccccc3F)oc(C)c12	0%	-12	nt	nt	-0.3	-16%[15.4 µM]
CCOc1ccc(CNC(=O)C2CCCN(S(=O)(=O)c3ccc4c(c3)CCCC(=O)N4)C2)cc1 (centres undefined)	nt	-23	nt	0.6%	2.4	nt
Cc1cccc(OCC(=O)Nc2ccc(C(=O)Nc3ccccc3C(=O)O)cc2)c1C	?	23	-1.9	-2.7%	0.9	-1%
Cc1cc(N/N=C/c2ccc(N(C)C)cc2)c2ccccc2n1	-19%	nt	-9.0	4.0%	nt	-84%[inhibitor]
CCc1ccc(OCC(=O)O/N=C(\N)c2ccncc2)c(Br)c1	-7%	24	nt	0.3%	0.5	-46%[inhibitor]
O=C(COc1ccccc1)Nc1sc2c(c1C(=O)Nc1ccccc1Cl)CCCCC2	nt	-17	nt	-2.6%	0.3	nt

(continued)
SMILES	gsp antagonist	TRPML1 inh	Menin MLL FP FL	ClpP mod	TRPML1 agonist	gsp ag
Cc1ccc(S(=O)(=O)NN=C2CC(C)(C)CC(=O)C2(C)C)cc1	nt	-2	nt	-0.1%	-0.6	18%
COC(=O)c1ccccc1NC(=O)CSc1nccn1C	9%	-2	0.5	-2.5%	0.0	?
CCc1nc2ccc(C(=O)NCc3ccccc3)cc2nc1CC	-1%	-3	6.2	0.7%	1.7	22%
CSCC[C@@H](C(=O)O)N1Cc2ccccc2C1=O	7%	-3	4.0	0.9%	-0.3	-28%
O=C(O)CCCCCN1C(=O)C(O)=C(C(=O)/C=C/c2ccccc2)C1c1cccc([N+](=O)[O-])c1 (centres undefined)	-1%	12	0.8	nt	-0.4	4%
O=C(/C=C/c1ccccc1)N1CCC[C@H]1CO	6%	-6	1.4	0.7%	0.1	-26%
CN=C(Nc1ccc(C(=O)OC)cc1)SC1CC(=O)N(c2ccccc2F)C1=O (centres undefined)	-10%	-23	0.2	2.5%	-1.0	5%
CCN1CCN(Cc2c(O)ccc3oc(C)c(C(=O)Nc4cccc(C(F)(F)F)c4)c23)CC1	nt	-2	nt	-0.3%	0.2	nt
Cc1ccc(S(=O)(=O)N2CCN(C(=O)C3CCCO3)CC2)cc1 (centres undefined)	2%	5	nt	-1.1%	-0.3	-12%
Cc1csc(N2CCCC2c2nc3cc(Cl)c(N4CCCCC4)cc3n2CCOCCO)n1 (centres undefined)	-12%	-25	nt	-0.9%	-0.7	-11%
